High-throughput results as filed in PubChem.
NS1 inh = influenza NS1 inhibition; S. cerevisiae slowed by influenza A NS1, growth recovery by OD600; Potency, µM (highest dose often 46.1 µM), inactives show at the top dose activity, positive = more growth; actives 0.4% (n = 270,000); AID 2326; active means well fitted rising curve with a large enough effect; inconclusive means small, poorly fitted or top-dose-only effect; inactive means no such curve, though single readings can be large or run the other way; also: nearly all actives have a fitted effect of over 50% in size
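OD600 was taken as the measure of yeast growth restored by compound in an NS1-expressing S. cerevisiae strain. Cells had been washed out of glucose medium and diluted 1:100 into galactose -URA medium, pH 6.0.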
Cruzain inh noDet = blocks cruzain activity in detergent-free assay. actives 2.3% (n = 200,000). P25779. purified cruzain, Z-FR-AMC fluorescence, no detergent. Potency, µM, for the others: max response, negative = inhibition, hits mostly inhibitors;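 also: plate controls were enzyme without inhibitor for no effect and buffer without enzyme for full effect; nearly all actives have a fitted effect of over 40% in size; top concentration of the series not given in the record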
Target sequence (P25779 123-467 limits assumed): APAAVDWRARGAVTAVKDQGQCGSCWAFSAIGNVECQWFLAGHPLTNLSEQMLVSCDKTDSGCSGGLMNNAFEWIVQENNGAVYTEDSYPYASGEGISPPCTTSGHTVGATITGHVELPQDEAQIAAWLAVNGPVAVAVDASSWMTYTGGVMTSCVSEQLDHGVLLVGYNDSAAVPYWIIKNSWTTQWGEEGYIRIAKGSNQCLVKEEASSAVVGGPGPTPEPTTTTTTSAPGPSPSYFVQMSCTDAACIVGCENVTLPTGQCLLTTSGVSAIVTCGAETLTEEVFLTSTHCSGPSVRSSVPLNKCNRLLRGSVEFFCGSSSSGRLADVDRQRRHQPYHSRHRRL
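Detergent-free condition (0.00005% Triton X-100) in acetate buffer pH 5.5 with DTT. 1.5 nM enzyme and compound were pre-mixed 15 min, then 2 uM Z-FR-AMC substrate added; reaction progress from fluorescence change between first and third reads (60 s).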
RE007 growth inh = less growth of the S. pombe RE007 Vpr strain; S. pombe RE007 Vpr strain, BacTiter-Glo ATP luminescence, 24 h; control for the full effect not named in the record; AID 651644; Potency, µM (doses to about 92.2 µM), for inactives: at the top dose activity change, negative = less growth; actives 0.21% (n = 360,000); active = well fitted falling curve with a large enough effect; inconclusive = small, poorly fitted or top-dose-only effect; inactive = no such curve, though single readings can be large or run the other way;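 also: % is scaled to controls: 0 for no effect and ±100 for the full control effect; nearly all actives have a fitted effect of over 50% in size; the assay follows cell death caused by Vpr and the record does not say whether a fall means rescue or toxicity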
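Fission yeast RE007 carrying one integrated HIV-1 vpr copy, seeded at OD 0.01 in PMG+AL medium with 23 nL pinned compound. Grown 24 h at 30 degrees; viability read by BacTiter-Glo luminescence after 5 min.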
Cruzain Triton = blocks cruzain activity in presence of Triton detergent. actives 0.43% (n = 200,000). P25779. Potency, µM, without a hit: max response, negative = inhibition, most hits filed as inhibitors. purified cruzain, Z-FR-AMC fluorescence, 0.01% Triton;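 also: plate controls were neutral wells for no effect and buffer without enzyme for full effect; nearly all actives have a fitted effect of over 40% in size; top concentration of the series not given in the record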
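Detergent-containing arm of a paired screen for aggregation-based inhibition: 0.01% Triton X-100 present. Cruzain at 1.5 nM cleaved 2 uM Z-FR-AMC at pH 5.5 with 5 mM DTT; AMC fluorescence gain over 60 s measured activity.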
Lassa entry inh = inhibitors of Lassa virus binding or cell entry | Lassa virus pseudotype entry inhibition, cell reporter; control for the full effect not named in the record | Potency, µM (highest dose often 37.9 µM), inactives show top-dose activity change, negative = inhibition, hits mostly inhibitors | actives 1.2% (n = 300,000) | AID 540256; active means well fitted inhibition curve with a large enough effect; inconclusive means small, poorly fitted or top-dose-only effect, or effect the other way; inactive means flat fitted curve, though single readings scatter; tested in HEK293 cells; also: % is scaled to controls: 0 for no effect and ±100 for the full control effect; nearly all actives have a fitted effect of over 50% in size; luciferase read-out
MARV entry inh = inhibitors of Marburg virus binding or cell entry; actives 1.8% (n = 300,000); Potency, µM (highest dose often 37.8 µM), for inactives: at the highest dose activity change, negative = inhibition, hits mostly inhibitors; Marburg virus pseudotyped entry inhibition, cell reporter; control for the full effect not named in the record; about a third of the inactives were read at about 46 µM; active = well fitted inhibition curve with a large enough effect; inconclusive = small, poorly fitted or top-dose-only effect, or effect the other way; inactive = flat fitted curve, though single readings scatter; tested in HEK293 cells; about a fifth of its hits are not listed in these tables; also: % is scaled to controls: 0 for no effect and ±100 for the full control effect; luciferase read-out
SARS PLP yeast = SARS-CoV PLP inhibition in yeast; AID 485353; Potency, µM (top dose mostly 32.9 µM), for inactives: at the highest dose activity, positive = growth rescue; S. cerevisiae expressing SARS-CoV PLpro, growth rescue; control for the full effect not named in the record; actives 0.19% (n = 330,000); active means well fitted rising curve with a large enough effect; inconclusive means small, poorly fitted or top-dose-only effect; inactive means no such curve, though single readings can be large or run the other way; also: 0% is about no effect; nearly all actives have a fitted effect of over 55% in size; growth read by luminescence after 48 h
StopGo reporter = FMDV 2A StopGo reporter, luciferase signal; human cells with a luciferase reporter of 2A StopGo recoding; control for the full effect not named in the record; Potency, µM (highest dose often 57.9 µM), for the others: at the top dose signal change, negative = less light; actives 1.2% (n = 410,000); AID 1159524; active = well fitted falling curve with a large enough effect; inconclusive = small, poorly fitted or top-dose-only effect; inactive = no such curve, though single readings can be large or run the other way; tested in HEK293T cells; also: % is scaled to controls: 0 for no effect and ±100 for the full control effect; nearly all actives have a fitted effect of over 45% in size; luciferase light after 4 h
* = called active by the depositor; ? = inconclusive; . = no result given; [ ] = another dose, or the depositor's remark. Unless noted, calls follow the shape of the dose curve; as a rule, active = well fitted curve in the direction sought with a large enough effect; inconclusive = small, poorly fitted or top-dose-only effect, or another doubt; inactive = no such curve, though single readings can be large; an effect the other way counts as inactive or inconclusive. Potency is read from the fitted curve at half-maximal effect.

Second line of a record: NS1 inh	Cruzain inh noDet	RE007 growth inh	Cruzain Triton	Lassa entry inh	MARV entry inh	SARS PLP yeast	StopGo reporter
[1] CS(=O)(=O)N1CCCC(C(=O)NC2CCCCCCC2)C1 (stereo unspecified)
    -2%	-6%	-26%	4.4%	3%	-2%	?	.
[2] Cc1ccc(NC(=O)c2ccc(NCCCN3CCOCC3)c([N+](=O)[O-])c2)cc1Cl
    -14%	-4%	-1%	-5.2%	?	?	-14%	32µM*
[3] O=S(=O)(c1cc(Cl)ccc1Cl)N1CCN(Cc2ccc3c(c2)OCO3)CC1
    -50%	-1%	-8%	-6.2%	.	-1%	-3%	-23%
[4] CC1=NN(Cc2ccccc2)C(=O)C1
    11%	7%	15%	1.4%	-3%	0%	18%	-24%
[5] c1csc(-c2nc(N3CCOCC3)c3ccccc3n2)c1
    -36%	.	-28%	.	-26%	?	-5%	?
[6] O=C(CCSc1ccc(Cl)cc1)N1CCN(c2ncccn2)CC1
    -53%	4%	-17%	-3.5%	?	?	1%	29%
[7] C=CCNC(=O)c1ccc(N(CC=C)S(C)(=O)=O)cc1
    8%	-1%	3%	-0.4%	?	1%[46.1 µM]	-9%	11%
[8] O=C(CCCOc1ccc(Cl)cc1Cl)Nc1nnc(C2CC2)s1
    7%	.	?	.	3%	-8%	-4%	-10%
[9] C=C(C)COc1ccc(-c2nc(N)ncc2Oc2ccccc2OCC)c(O)c1
    -58%	-16%	17%	-0.7%	?	?	0%	0%
[10] Cc1ccc(S(=O)(=O)N(Cc2cc3ccccc3[nH]c2=O)c2cccc(C)c2)cc1
    0%	.	12%	.	.	.	1%	-8%
[11] CCOC(=O)CSc1cc(=O)n(C)c2cc(Cl)ccc12
    -17%	7%	18%	0.4%	24%	-9%	-5%	13%
[12] CN(C)c1ccc(-c2cccc(C3CC=CC4C3C(=O)N(Cc3ccccc3)C4c3ccc(C(F)(F)F)cc3)c2)cc1 (stereo unspecified)
    2%	.	-5%	.	.	.	-1%	-1%
[13] CCS(=O)(=O)NCCc1csc2nc(-c3ccc(C)cc3)nn12
    .	-6%	.	-4.5%	22%[46.1 µM]	.	.	-16%
[14] COc1ccc(CCNC(=O)C2CCCN2C(=O)Nc2ccc(Cl)cc2)cc1OC (stereo unspecified)
    0%	.	4%	.	.	.	10%	-16%
[15] O=C(O)c1c[nH]c2ccc(F)cc2c1=O
    .	.	26%	.	-2%[46.1 µM]	3%	-1%	-9%
[16] COC(=O)c1ccc(NC(=O)CC2C(=O)N(c3ccc(Cl)cc3)C(=O)N2Cc2cccs2)cc1 (stereo unspecified)
    .	-19%	.	-6.0%	-22%[46.1 µM]	.	.	-10%
[17] COc1cc2[nH]c(=O)n(CCC(=O)NC3CCN(Cc4ccccc4)CC3)c(=O)c2cc1OC
    -10%	3%	9%	3.1%	-10%	12%	1%	-10%
[18] COC(=O)C(CC(C)C)NC(=O)/C=C/c1ccc(Cl)cc1 (stereo unspecified)
    .	.	5%	.	0%	-1%[46.1 µM]	0%	-5%
[19] CCC(C)(C)n1nnnc1C(c1ccccn1)N1CCN(c2cccc(OC)c2)CC1 (stereo unspecified)
    1%	10%	5%	-0.6%	-12%	2%	-14%	7%
[20] CC1CN(C2CCN(S(=O)(=O)c3ccc(F)cc3)CC2)CC(C)O1 (stereo unspecified)
    1%	2%	25%	7.4%	3%	-23%	-5%	-12%
[21] Cc1c(/C(O)=C2\C(=O)C(=O)N(CCN(C)C)C2c2cccnc2)cnn1-c1ccccc1 (stereo unspecified)
    4%	-9%	5%	1.0%	-11%	?	5%	6%
[22] CC1(NC(=O)Nc2cccc3ccccc23)CCS(=O)(=O)C1 (stereo unspecified)
    6%	.	-18%	.	25%[46.1 µM]	?	3%	15%
[23] FC(F)(F)c1ccc(N=Cc2sc(N3CCOCC3)nc2-c2ccccc2)cc1
    11%	?	-21%	-4.5%	1%[46.1 µM]	19%[46.1 µM]	15%	7%
[24] O=C(N1CCN(Cc2ccccc2)CC1)C(Cl)(Cl)Cl
    -3%	-1%	6%	-0.9%	5%	3%	?	-4%
[25] CCCn1c(=N)n(CC(=O)c2ccc(Cl)c(Cl)c2)c2ccccc21
    0%	.	-17%	.	6%[46.1 µM]	?	-1%	?
[26] O=C1C2CCCN2C(=S)N1c1ccc(Cl)cc1 (stereo unspecified)
    8%	.	-9%	.	?	?	-3%	9%
[27] CC1CC(C)OP(=O)(OCCC#N)O1 (stereo unspecified)
    .	.	5%	.	1%	14%	.	-17%
[28] CC(C)Oc1ccc(CNC(=O)c2ccc3c(c2)N(C)C(=O)C2CCCCN32)cc1 (stereo unspecified)
    .	7%	.	-14%	3%[46.1 µM]	.	.	4%
[29] CCCn1c(=O)c(Cc2ccccc2)c(O)c2ccccc21
    ?	-26%	-7%	2.4%	9%	?	19%	-15%
[30] COc1cccc(CNC(=O)CCCN2C(=O)CSc3c2c(C)nn3-c2ccccc2)c1OC
    .	?	.	-0.7%	?	.	.	-6%

(cont.)
Second line of a record: NS1 inh	Cruzain inh noDet	RE007 growth inh	Cruzain Triton	Lassa entry inh	MARV entry inh	SARS PLP yeast	StopGo reporter
[31] COc1cc(C2c3cc(O)c(OC)cc3CC(C(=O)O)C2CO)ccc1O (stereo unspecified)
    .	.	-9%	.	20%[46.1 µM]	?	.	3%
[32] CC1(C)CC(NC(=O)c2ccc(Cl)cc2Cl)CC(C)(C)N1
    9%	.	16%	.	-2%[46.1 µM]	-6%[46.1 µM]	-2%	3%
[33] CCOC(=O)CN1C(=O)C(Sc2n[nH]c(-c3cccc(C)c3)n2)CCc2ccccc21 (stereo unspecified)
    -2%	22%	-1%	-6.6%	-32%	?	-16%	?
[34] CCN1CCN(C(=O)Cn2cnc3sc(C)c(S(=O)(=O)N4CCN(c5ncccn5)CC4)c3c2=O)CC1
    .	.	-6%	.	17%[46.1 µM]	-11%[46.1 µM]	1%	-11%
[35] CCCSc1ncc(Cl)c(C(=O)Nc2sc(C(C)=O)c(C)c2C(=O)OCC)n1
    .	7%	.	-1.0%	3%[46.1 µM]	-1%[46.1 µM]	.	-25%
[36] CCN1C(=O)[C@H]2[C@@H](c3ccc(C)cc3)N3C(=O)N(c4ccc(C(F)(F)F)cc4)C(=O)[C@@]3(Cc3ccccc3)[C@H]2C1=O
    19%	.	1%	.	.	.	-2%	-3%
[37] O=C(O)[C@@H]1CCCN1c1ncnc2sc3c(c12)CCC3
    -3%	1%	21%	3.1%	4%	-4%	-2%	-11%
[38] COc1ccc(-n2cccc2/C=C/[N+](=O)[O-])cc1
    -30%	-9%	?	-4.6%	?	?	-135%	28µM*
[39] COc1ccc(/C=C(/NC(=O)c2ccco2)C(=O)Nc2ccc(C(C)=O)cc2)cc1
    5%	.	-20%	.	-17%	-11%[46.1 µM]	1%	3%
[40] Cc1nn2c(=O)cc(COc3ccc(/C=C(\C#N)C(=O)Nc4ccccc4C)cc3)nc2s1
    .	5%	.	-0.5%	?	8%[46.1 µM]	.	?
[41] Cc1ccc(-n2nc3c(c2NC(=O)c2ccc4c(c2)OCO4)CS(=O)C3)c(C)c1 (stereo unspecified)
    .	.	-5%	.	9%	7%	6%	-11%
[42] Cc1cc(C)cc(N(CC(=O)N/N=C/c2ccncc2)S(=O)(=O)c2ccccc2)c1
    -13%	-1%	-4%	-5.8%	2%	?	-30%	-17%
[43] COc1cc(OC)c(NC(=O)CCCn2nc(C)c3sc4ccccc4c3c2=O)cc1Cl
    .	-2%	.	-8.2%	?	3.2µM*	.	-12%
[44] Cc1cc(C)c(C)c(S(=O)(=O)N2CCNCC2)c1C
    .	.	10%	.	-7%	?	-1%	-7%
[45] O=C(O)CSc1nnnn1-c1ccc2c(c1)OCCO2
    11%	-5%	9%	-7.7%	6%	-14%	11%	6%
[46] CCc1ccccc1NCC(=O)Nc1ccccc1C(=O)OC
    -12%	9%	85%	-6.6%	-1%	0%	0%	-4%
[47] COc1cccc(Oc2cn[nH]c2-c2ccc(OC)cc2O)c1
    -132%	-17%	-9%	-10%	?	?	-42%	-17%
[48] O=C(Nc1cccc(O)c1)C1CC(c2c(F)cccc2Cl)=NO1 (stereo unspecified)
    13%	.	-13%	.	.	.	0%	26%
[49] CCCC(C(=O)NC1CCCC1)N(C(=O)Cn1nnc(-c2ccc(C)o2)n1)c1cccc(O)c1 (stereo unspecified)
    4%	.	-19%	.	-26%	-11%[46.1 µM]	-13%	-20%
[50] Cc1ccc(N2CCN(S(=O)(=O)N3CCOCC3)CC2)cc1C
    .	.	-27%	.	-7%[46.1 µM]	-1%[46.1 µM]	-3%	13%
[51] Nc1nc(SCCOc2ccccc2)n[nH]1
    -2%	5%	3%	3.2%	24%	13%	-1%	46%[activator]
[52] CSCCC(NC(=O)c1ccccc1)C(=O)NNC(=O)c1csc(N2CCOCC2)n1 (stereo unspecified)
    2%	.	-15%	.	26%[46.1 µM]	-9%[46.1 µM]	-1%	27%
[53] CC(C)C(=O)NC(c1cccs1)c1cc([N+](=O)[O-])c2cccnc2c1O (stereo unspecified)
    -5%	-26%	0%	4.1%	-7%	?	?	-25%
[54] O=C(CSCC(=O)N1CCCCC1)Nc1nc(-c2ccccc2)c(-c2ccccc2)s1
    25%	?	-3%	-6.2%	?	-17%	-10%	-26%
[55] S=C(NCCc1ccccn1)Nc1ccc(Cl)cc1Cl
    -2%	.	-15%	.	-1%	10%[46.1 µM]	2%	60%[activator]
[56] COc1cc(COCC(O)CN2CCN(CCN3C(=O)c4cccc5cccc(c45)C3=O)CC2)cc(OC)c1OC (stereo unspecified)
    -5%	-7%	-2%	-10%	-10%	?	24%	?
[57] O=C1C2C3CCCC3=C3CCCC3C2C(=O)N1c1ccc(Cl)cc1 (stereo unspecified)
    4%	-4%	-15%	-2.6%	2%	17%[46.1 µM]	-1%	4%
[58] COC(=O)C1=NN(C(C)=O)C2(CC(=O)N(c3cc(C)cc(C)c3)C2=O)C1 (stereo unspecified)
    -3%	-1%	-5%	1.4%	22%	?	2%	5%
